# FGF22 binding: FGF22 (human) thermal shift binding; Q9HCT0; recombinant FGF22 thermal shift, SYPRO orange fluorescence; percent of sucrose octasulfate shift, DMSO zero; calls only at 9.99 µM; hit rate 1.5% among 340,000; AID 651658;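 active means melting point raised past a set limit in the mean and every replicate; three in four hits are not shown here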
# Target sequence (Q9HCT0 whole entry, looked up): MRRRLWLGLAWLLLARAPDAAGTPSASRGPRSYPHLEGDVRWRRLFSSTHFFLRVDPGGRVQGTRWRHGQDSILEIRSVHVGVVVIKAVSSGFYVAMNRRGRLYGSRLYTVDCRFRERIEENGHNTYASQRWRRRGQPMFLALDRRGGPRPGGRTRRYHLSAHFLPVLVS
# MLL AF4-AF9 inh: blocks AF4 peptide binding to human AF9; AlphaScreen, biotin-AF4 peptide binding to FLAG-AF9; inhibition, % at 10 µM; hit rate 0.47% among 350,000; AID 651704;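 active means every replicate reaching a set inhibition limit, whatever the replicate mean, cut at about 25% in these data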;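 further: 0% = plate neutral control median and 100% = total signal loss; the record names both 10 and 1 µM as test concentration; the first replicate is given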
# Target sequence (P42568 whole entry, looked up): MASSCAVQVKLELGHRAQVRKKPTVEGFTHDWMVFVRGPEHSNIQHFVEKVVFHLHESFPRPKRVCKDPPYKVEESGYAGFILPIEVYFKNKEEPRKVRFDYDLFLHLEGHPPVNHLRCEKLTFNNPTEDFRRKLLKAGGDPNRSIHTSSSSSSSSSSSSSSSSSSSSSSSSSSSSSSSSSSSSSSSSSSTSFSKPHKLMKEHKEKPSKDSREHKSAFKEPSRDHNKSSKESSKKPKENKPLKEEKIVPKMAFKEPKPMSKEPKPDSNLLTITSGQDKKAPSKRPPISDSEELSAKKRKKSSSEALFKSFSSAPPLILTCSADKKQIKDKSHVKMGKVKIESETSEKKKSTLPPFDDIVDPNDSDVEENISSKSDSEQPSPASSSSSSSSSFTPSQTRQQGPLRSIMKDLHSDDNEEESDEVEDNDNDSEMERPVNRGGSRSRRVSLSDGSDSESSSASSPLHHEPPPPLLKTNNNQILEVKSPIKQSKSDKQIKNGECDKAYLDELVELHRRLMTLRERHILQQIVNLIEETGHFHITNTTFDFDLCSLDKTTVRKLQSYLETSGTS
# rRNA inh HTS: inhibits bacterial ribosomal RNA function over humanized ribosomes. E. coli WT GFP vs humanized-ribosome RFP mutants, fluorescence, 24 h; hits give low values; DMSO median 0, no signal -100. GFP signal change (wild-type ribosome), % (concentration not given with the values). hit rate 1.6% among 350,000;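 active means significant combined selectivity score with lowered wild-type GFP, culture density cut under 30%, mutant RFP and density less affected; inactive means any of these conditions unmet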; further: one replicate is shown; some compounds called inactive have numbers as strong as hits
# rRNA inh HTS OD600: recorded beside rRNA inh HTS, whose call it bears; OD600 change, %; measured here: OD600 growth;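 optical density of the mix in the first replicate; 0 = DMSO median and -100 = no signal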
# rRNA inh HTS RFP: recorded beside rRNA inh HTS, whose call it bears; RFP signal change, %; measured here: RFP humanized mutant strains;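 first replicate; 0 = DMSO median and -100 = no signal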
# An asterisk follows results filed as active; i = inactive; + = active, no number; & = joins results of further samples. These rows are one share of the data; the hit share may differ from the screen's.
FGF22 binding	MLL AF4-AF9 inh	rRNA inh HTS	rRNA inh HTS OD600	rRNA inh HTS RFP	Molecule
i	-5.2	-57.5	-74.1	-15.2	CC(O)(c1cccc(F)c1)c1nc(-c2cccc(C#N)c2)cs1 (stereo not given)
i	-2.2	-1.4	-1.1	-1.2	O=C(N[C@@H]1C=C[C@@H](CC(=O)N2CCC(Cc3ccccc3)CC2)O[C@H]1CO)c1cnccn1
i	-1.2	-2.9	8.1	1.5	O=C(c1ccccn1)N1C[C@@H]2[C@H](c3ccccc31)[C@H](CO)N2C(=O)Cc1ccccc1
i	-2.1	4.9	9.1	-0.8	C[C@H](CO)N1C[C@H](C)[C@H](CN(C)Cc2ccccc2)Oc2ccc(NC(=O)CCCN(C)C)cc2C1=O
i	-0.7	1.2	0.3	0.9	CCCNC(=O)N1CC2(CN(CC3CCOCC3)C2)c2c([nH]c3cc(OC)ccc23)[C@H]1CO
i	5.3	-4.1	-3.4	8.9	CO[C@H]1CN(C)C(=O)c2ccc(NC(=O)Nc3cccc(Cl)c3)cc2OC[C@H](C)NC[C@@H]1C
i	-4.3	1.1	-4.5	1.7	C=CC[C@@H](CC(=O)NCCO)C(=O)N[C@@H](C)COC(=O)[C@H](CC=C)CC(=O)OC(C)(C)C
i	2.9	1.7	-0.5	1.0	C[C@H](CO)N1C[C@H](C)[C@H](CN(C)C(=O)CN(C)C)Oc2cc(C#CCN(C)C)ccc2S1(=O)=O
i	2.1	-31.9*	-25.6*	-2.1*	CCCCN1CC(N2CCN(Cc3ccccc3)CC2)CS1(=O)=O (stereo not given)
i	0.6	5.2	20.0	-1.2	CNC[C@@H]1Oc2ccc(NC(=O)CCCN(C)C)cc2C(=O)N([C@@H](C)CO)C[C@H]1C

# Reprinted from the part before: 2 entries, followed by the next part.
FGF22 binding	MLL AF4-AF9 inh	rRNA inh HTS	rRNA inh HTS OD600	rRNA inh HTS RFP	Molecule
i	2.1	-31.9*	-25.6*	-2.1*	CCCCN1CC(N2CCN(Cc3ccccc3)CC2)CS1(=O)=O (stereo not given)
i	0.6	5.2	20.0	-1.2	CNC[C@@H]1Oc2ccc(NC(=O)CCCN(C)C)cc2C(=O)N([C@@H](C)CO)C[C@H]1C
i	1.4	20.3	29.9	1.6	COc1ccc(C(NC(=O)C2CCN(Cc3cc(OC)cc(OC)c3)CC2)c2ccccn2)cc1 (stereo not given)
i	0.8	-0.6	-3.5	-3.3	COc1ccc(S(=O)(=O)Nc2ccc3c(c2)C(=O)N([C@H](C)CO)C[C@H](C)[C@H](CN(C)C(=O)Nc2ccccc2)OCCCC[C@H](C)O3)cc1
i	-0.8	12.6	4.5	4.4	COC(=O)C[C@@H]1CC[C@H](NC(=O)c2cnccn2)[C@@H](CO)O1
i	-0.9	1.6	7.7	-0.8	CN1[C@@H]2Cn3c(ccc(-c4ccccc4)c3=O)[C@H]1[C@@H](C(=O)NC1CCCCC1)[C@@H]2CO
i	-0.3	3.2	-1.9	-2.4	CN(C)CCCNC(=O)C[C@H]1CC[C@@H]2[C@@H](COc3ccc(NC(=O)c4ccccc4F)cc3C(=O)N2C)O1
i	4.1	-0.5	2.3	0.0	COC(=O)[C@]1(C)N[C@H](CN(C)S(=O)(=O)c2ccc(F)cc2)[C@@H]2C(=O)N(Cc3ccccc3)C(=O)[C@@H]21
i	-1.1	-2.5	-6.2	14.8	C[C@@H]1CN([C@H](C)CO)C(=O)c2cc(C#Cc3ccccc3F)cnc2O[C@H]1CN(C)C(=O)Cc1ccccc1
i	-0.6	4.8	10.0	0.8	C[C@H](O)C#Cc1cnc2c(c1)C(=O)N([C@@H](C)CO)C[C@H](C)[C@@H](CN(C)C(=O)c1ccccc1F)O2
i	3.6	2.7	-2.5	1.7	C[C@H]1CN([C@@H](C)CO)C(=O)c2cccc(N(C)C)c2O[C@H]1CN(C)Cc1ccc(C(=O)Nc2ccccc2N)cc1
i	-6.6	-2.4	-1.3	2.7	C[C@H](CO)N1C[C@H](C)[C@H](CN(C)S(=O)(=O)c2cccs2)OCCCC[C@H](C)Oc2ccc(NS(C)(=O)=O)cc2C1=O
i	-2.9&-0.7	4.2&-6.7	1.5&4.5	-1.5&-2.7	COc1ccc(S(=O)(=O)N(C)C[C@@H]2OCc3cnnn3CCCC(=O)N([C@H](C)CO)C[C@@H]2C)cc1
i	-7.8	1.7	-0.4	1.9	COc1ccccc1-c1cnc2c(c1)C(=O)N([C@@H](C)CO)C[C@@H](C)[C@@H](CN(C)C)O2
i	-4.8	4.3	-0.2	-0.9	C[C@@H]1CN([C@H](C)CO)C(=O)Cc2cc(NC(=O)C3CC3)ccc2O[C@H]1CN(C)CC1CC1
i	-5.8	2.5	8.5	-2.5	C/C(NCCc1ccccc1)=C1/CCOC1=O
i	-1.5	1.4	1.3	-1.7	CCC(=O)Nc1ccc2c(c1)OC[C@@H](C)N(C(=O)C1CCC1)C[C@@H](C)[C@H](OC)CN(C)C2=O
i	-2.0	5.2	9.1	-2.1	C[C@H](CO)N1C[C@H](C)[C@H](CN(C)Cc2ccncc2)Oc2ncc(-c3cncnc3)cc2C1=O
i	2.1	4.4	3.5	0.1	C[C@@H]1CCCCO[C@H](CN(C)CC2CC2)[C@H](C)CN([C@@H](C)CO)C(=O)c2cc(NC(=O)Cc3ccccc3)ccc2O1
i	1.9	-0.7	2.5	-0.3	C[C@@H]1CCCCO[C@H](CN(C)C(=O)C2CCCCC2)[C@H](C)CN([C@@H](C)CO)C(=O)c2cc(NS(=O)(=O)c3cn(C)cn3)ccc2O1
i	-3.0	2.3	1.2	-1.7	CNC[C@@H]1OCCCC[C@@H](C)Oc2ccc(NS(=O)(=O)c3ccccc3)cc2C(=O)N([C@@H](C)CO)C[C@@H]1C
i	-12.5	2.8	4.2	-4.3	CCCNC(=O)N[C@@H]1CC[C@H](CCn2cc(C3CCCCC3)nn2)O[C@H]1CO
i	-0.5	0.9	-0.7	-1.9	C[C@@H]1CN([C@H](C)CO)C(=O)Cc2cc(NC(=O)Nc3ccccc3)ccc2O[C@H]1CN(C)C
i	0.2	3.2	4.7	-2.0	C[C@@H]1CN([C@@H](C)CO)C(=O)c2cc(NC(=O)Nc3cccc4ccccc34)ccc2O[C@H]1CN(C)S(=O)(=O)c1ccc(Cl)cc1
i	-0.5	-8.7	-15.8	0.1	COc1cccc(NC(=O)Nc2ccc3c(c2)C(=O)N(C)[C@@H]2CC[C@H](CC(=O)NCCc4ccccc4)O[C@@H]2CO3)c1
i	0.1	8.1	8.4	1.8	CCOC(=O)C1(C)CCCCCN1C(=O)c1ccccc1F (stereo not given)
i	-2.2	-6.7	-4.3	1.8	O=C(N[C@@H]1CC[C@@H](CCNS(=O)(=O)c2ccc(Cl)cc2)O[C@H]1CO)c1ccccn1
i	1.2	-4.4	-10.7	-0.3	O=C(NC1CCC1)[C@@H]1[C@@H](CO)[C@@H]2Cn3c(ccc(-c4ccccc4F)c3=O)[C@@H]2N1Cc1cocn1
i	-1.7	3.5	10.3	-0.2	COc1ccc2c3c(n(C)c2c1)[C@@H](CO)N(C(C)=O)CC31CCN(C(=O)C2CC2)CC1
i	-0.4	-0.5	21.8	-0.6	O=C(C[C@H]1CC[C@@H]2[C@H](COC[C@@H](O)CN2CC2CC2)O1)NCc1ccc(Cl)cc1
i	-0.2	-3.4	2.1	1.9	N#C[C@H]1[C@H](c2ccccc2)[C@H](CO)N1S(=O)(=O)c1cccc(F)c1
i	0.5	-13.4	-38.8	-0.9	COc1cccc(-c2ccc([C@H]3[C@@H](C#N)N(C(=O)c4ccccn4)[C@@H]3CO)cc2)c1

# Reprinted at random: four entries already listed
FGF22 binding	MLL AF4-AF9 inh	rRNA inh HTS	rRNA inh HTS OD600	rRNA inh HTS RFP	Molecule
i	-0.5	0.9	-0.7	-1.9	C[C@@H]1CN([C@H](C)CO)C(=O)Cc2cc(NC(=O)Nc3ccccc3)ccc2O[C@H]1CN(C)C
i	-2.2	-6.7	-4.3	1.8	O=C(N[C@@H]1CC[C@@H](CCNS(=O)(=O)c2ccc(Cl)cc2)O[C@H]1CO)c1ccccn1
i	-0.2	-3.4	2.1	1.9	N#C[C@H]1[C@H](c2ccccc2)[C@H](CO)N1S(=O)(=O)c1cccc(F)c1
i	0.2	3.2	4.7	-2.0	C[C@@H]1CN([C@@H](C)CO)C(=O)c2cc(NC(=O)Nc3cccc4ccccc34)ccc2O[C@H]1CN(C)S(=O)(=O)c1ccc(Cl)cc1

# The results go on.
FGF22 binding	MLL AF4-AF9 inh	rRNA inh HTS	rRNA inh HTS OD600	rRNA inh HTS RFP	Molecule
i	5.9	0.2	-10.8	0.2	CC(O)(c1cccc(F)c1)c1nc(-c2cccc3cccnc23)cs1 (stereo not given)
i	-0.1	0.9	1.7	0.3	C[C@@H]1CN([C@@H](C)CO)C(=O)Cc2cc(NS(=O)(=O)c3cccs3)ccc2O[C@H]1CN(C)C(=O)NC1CCCCC1
+	-1.8	4.8	15.1	1.5	O=C(C[C@@H]1CC[C@H]2[C@@H](COC[C@@H](O)CN2C(=O)c2ccc(F)cc2)O1)NCc1cccc(F)c1
i	4.7	4.0	5.0	0.5	O=C(CN1CCOCC1)N1CCCCN2[C@H](CO)[C@@H](c3ccc(-c4ccccc4)cc3)[C@H]2C1
i	2.7	5.4	9.4	0.8	CC(=O)N(C)C[C@@H]1Oc2ncc(-c3ccc(F)cc3)cc2C(=O)N([C@@H](C)CO)C[C@@H]1C
i	-0.7	-6.2	-10.3	-1.3	Cc1ccc(S(=O)(=O)N[C@@H]2CC[C@H](CCn3cc(C4(O)CCCC4)nn3)O[C@@H]2CO)cc1
i	-0.1	-3.3	-12.0	0.9	CCCNC(=O)N(C)C[C@@H]1Oc2cc(-c3ccccc3F)ccc2S(=O)(=O)N([C@@H](C)CO)C[C@@H]1C
i	-1.9	0.7	5.6	-1.1	C[C@@H]1CN([C@@H](C)CO)C(=O)c2cc(-c3ccncc3)cnc2O[C@H]1CN(C)C(=O)c1ccccc1F
i	-1.2	-3.0	7.1	-4.0	COc1cccc(S(=O)(=O)N[C@H]2C=C[C@@H](CC(=O)NC3CCC3)O[C@@H]2CO)c1
i	3.6	-19.0*	-10.7*	4.7*	CC(C)CC#Cc1ccc([C@@H]2[C@H](CO)N3CCCCN(S(=O)(=O)c4ccc(F)cc4)C[C@@H]23)cc1
i	1.6	-14.0	2.1	-3.6	C[C@H]1CN([C@@H](C)CO)C(=O)c2cc(-c3cccc(C(=O)N(C)C)c3)cnc2O[C@@H]1CN(C)S(=O)(=O)c1cccc(F)c1
i	-3.1	6.1	8.1	1.6	Cc1noc(C)c1NC(=O)Nc1ccc2c(c1)CC(=O)N([C@H](C)CO)C[C@@H](C)[C@H](CN(C)C(=O)Nc1c(C)noc1C)O2
i	-0.8	1.3	3.2	0.2	C[C@@H]1CCCCO[C@@H](CN(C)C(=O)NC2CCCCC2)[C@@H](C)CN([C@H](C)CO)C(=O)c2cc(NC(=O)c3ccncc3)ccc2O1
i	-1.2	-1.7	4.1	-1.2	Cc1ccc(S(=O)(=O)Nc2ccc3c(c2)C(=O)N([C@H](C)CO)C[C@H](C)[C@H](CN(C)Cc2ccncc2)O3)cc1
i	0.5	0.2	-6.6	1.3	COc1ccc(S(=O)(=O)N(C)C[C@@H]2OCCCC[C@H](C)Oc3ccc(NS(C)(=O)=O)cc3C(=O)N([C@H](C)CO)C[C@H]2C)cc1
i	12.3	-55.2	-74.4	-12.2	C[C@H](CO)N1C[C@H](C)[C@@H](CN(C)Cc2ccccc2)Oc2ccc(NC(=O)Nc3ccccc3)cc2CC1=O
i	-1.9	2.5	0.8	-0.9	Cc1noc(C)c1NC(=O)N[C@H]1CC[C@@H](CCNC(=O)C2CC2)O[C@H]1CO
i	-5.9	3.3	13.8	8.6	CC(C)C[C@@H](CNCC(=O)[C@H](CC(C)C)NC(=O)c1[nH]cnc1C(=O)N[C@@H](C)CN)NC(=O)c1nc[nH]c1C(=O)N[C@@H](Cc1ccccc1)C(=O)O
i	-1.3	1.1	4.9	2.1	COc1ccccc1CNc1nc(Oc2cccc(F)c2)c2sccc2n1
i	-1.8	3.4	-5.1	-1.0	CC(C)NC(=O)Nc1cccc2c1O[C@@H](CN(C)S(=O)(=O)c1cn(C)cn1)[C@H](C)CN([C@H](C)CO)C2=O
i	-11.6	-0.5	1.3	0.5	CO[C@@H]1CN(C)C(=O)c2cc(NC(=O)NC(C)C)ccc2OC[C@H](C)N(S(C)(=O)=O)C[C@H]1C
i	-1.3	8.2	11.4	5.1	CC1(C(=O)NS(=O)(=O)c2ccccc2)CCN1C(=O)C1(c2ccccc2)CCCC1 (stereo not given)
i	0.5	8.9	6.9	4.4	CN(CCN1CCOCC1)C(=O)C1CCC(=O)N(Cc2ccc(Cl)cc2)C1 (stereo not given)
i	1.2	-58.8	-68.2	-14.4	CCCC#Cc1ccc([C@@H]2[C@@H](CO)N3CCCCN(C(=O)NC4CCCC4)C[C@H]23)cc1
i	-1.3	3.3	3.7	-4.5	CN(C)CCCNC(=O)C[C@@H]1CC[C@H](NS(=O)(=O)c2ccc(F)cc2)[C@@H](CO)O1
i	2.2	-11.2	-5.3	-4.4	O=C(c1ccccc1)C(Nc1cccc([N+](=O)[O-])c1)c1ccccc1 (stereo not given)

# Bioassay records as filed in PubChem.
